eIF4H inh = inhibitors of RNA binding by human eIF4H | Q15056 | eIF4H fluorescence polarization binding assay | inhibition, % at 35 µM | 290,000 tested, 0.94% active;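 active = 50% or more with normal probe brightness, or confirmed in later tests; inconclusive = above 50% with abnormal brightness, or retests that disagree; inactive = below 50% or failed in later tests; about a fifth of its hits are not listed in these tables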;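 also: calls also rest on retests at 20 µM and on dose response follow-up; 0% = protein and probe with vehicle and 100% = probe without protein; strong numbers were not always called active; many hits fall short of the cut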
PABP FP inh = PABP-poly(A) binding inhibition; P11940; PABP-poly(A) RNA binding, fluorescence polarization; inhibition, % at 35 µM; 290,000 tested, 1% active;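 active = 50% or more with normal probe brightness, or confirmed in later tests; inconclusive = above 50% with abnormal brightness, or retests that disagree; inactive = below 50% or failed in later tests; about a fifth of its hits are not listed in these tables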;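 also: calls also rest on retests at 20 µM and on dose response follow-up; controls were probe without protein and protein plus probe with vehicle; some compounds called inactive have numbers as strong as hits; many hits fall short of the cut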
Target sequence (P11940 whole entry, looked up): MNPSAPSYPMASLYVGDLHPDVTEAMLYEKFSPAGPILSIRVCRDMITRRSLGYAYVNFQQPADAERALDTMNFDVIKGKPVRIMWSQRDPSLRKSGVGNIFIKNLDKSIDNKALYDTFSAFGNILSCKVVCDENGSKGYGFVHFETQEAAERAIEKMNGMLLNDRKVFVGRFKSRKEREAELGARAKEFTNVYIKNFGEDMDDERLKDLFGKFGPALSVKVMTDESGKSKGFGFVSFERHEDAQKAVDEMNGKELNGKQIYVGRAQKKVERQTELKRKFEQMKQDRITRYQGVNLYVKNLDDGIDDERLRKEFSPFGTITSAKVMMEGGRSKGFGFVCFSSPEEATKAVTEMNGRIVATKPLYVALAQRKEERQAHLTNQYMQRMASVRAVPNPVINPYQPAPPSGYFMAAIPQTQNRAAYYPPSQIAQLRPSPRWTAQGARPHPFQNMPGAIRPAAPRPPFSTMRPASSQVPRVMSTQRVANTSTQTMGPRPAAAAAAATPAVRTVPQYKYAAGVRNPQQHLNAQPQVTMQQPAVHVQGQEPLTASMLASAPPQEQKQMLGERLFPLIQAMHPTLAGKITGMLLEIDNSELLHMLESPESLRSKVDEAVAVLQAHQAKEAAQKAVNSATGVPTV
CSC inhib = cancer stem cell inhibition. 300,000 tested, 1.1% active. cancer stem cell-like cells viability, luminescence. inhibition, % at 7.5 µM;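 active = mean at 75% or more and at least half the replicates too; inconclusive = mean and replicates disagree; tested in HMLE shEcad cells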;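 also: 0% = median of negative and 100% = median of positive control wells; the first replicate is given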
Yeast UUG start = alters start codon recognition fidelity in yeast; S. cerevisiae UUG-firefly luciferase reporter, luminescence/redox ratio; activity score, % at 18.7 µM; 350,000 tested, 0.13% active;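 active = replicate mean at a twofold rise or more, about +100% in these data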;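 also: firefly luciferase made from a UUG start codon reports start codon fidelity; reporter light over untreated wells divided by growth signal over untreated wells; some hits fall short of that in this replicate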
Rce1 inhib = yeast Ras-converting enzyme inhibition; Q03530; calls only; AID 2563; 290,000 tested, 0.27% active; yeast membranes, quenched prenylated peptide cleavage fluorescence;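 active = fall in fluorescence gain of 50% or more versus controls, with final raw signal at or below 3038400; inconclusive = same 50% fall but final raw signal above 3038400; inactive = fall in fluorescence gain under 50%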;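 also: plate controls were neutral control wells for no effect and wells lacking membranes for full effect; tested at 10 µM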
Target sequence (Q03530 whole entry, looked up): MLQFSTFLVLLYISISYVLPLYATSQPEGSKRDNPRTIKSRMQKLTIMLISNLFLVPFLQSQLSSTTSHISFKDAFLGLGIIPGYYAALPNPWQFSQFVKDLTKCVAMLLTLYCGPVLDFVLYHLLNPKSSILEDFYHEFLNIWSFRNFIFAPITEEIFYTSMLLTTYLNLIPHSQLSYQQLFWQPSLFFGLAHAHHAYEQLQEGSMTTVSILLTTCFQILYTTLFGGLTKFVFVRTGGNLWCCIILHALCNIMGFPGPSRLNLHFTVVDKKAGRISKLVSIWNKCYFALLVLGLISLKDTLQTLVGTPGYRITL
Env fusion inh = inhibitors of HIV Env-mediated cell fusion; inhibition, % at 12.3 µM; 360,000 tested, 1.1% active; HeLa-JRFL Env/CEM21 cell fusion, luciferase;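 active = mean replicate inhibition score of at least 50 and every replicate individually at or above 50; inconclusive = only one of the two criteria met; inactive = mean below 50 and not all replicates reaching 50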;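 also: 0% = plate neutral controls and 100% = maraviroc near 300 nM; one replicate is shown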
MT1-MMP act inh = blocks activation of human MT1-MMP. AID 651647. P50281. HT1080 RFP-PRO-GFP cells, GFP/RFP ratio fluorescence, overnight; percent of plate control window, DMSO zero. GFP/RFP ratio change, % at 20 µM. 360,000 tested, 0.061% active;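 active = GFP/RFP ratio change of at least 30% with cell ATP level not reduced by more than half and red fluorescence within 50% of control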; also: strong numbers were not always called active
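Material – HT1080 RFP-PRO-GFP cells · Control set – DMSO wells and RFP-L50D-GFP cells · Incubation – overnight cell settling, then overnight compound exposure, 37 °C, 5% CO2 · Compound dosing – single-point 20 µM compound, 1% DMSO · Read-out – GFP/RFP fluorescence ratio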
eIF4H inh retest = further read-out of eIF4H inh, marked with its call; inhibition, %; compound at 20 µM; confirmation average;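 mean of two retest wells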
PABP FP inh retest = recorded beside PABP FP inh, whose call it bears; inhibition, %; compound at 20 µM; confirmation repeats;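 mean of two retest wells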
MT1-MMP act inh RFP = recorded beside MT1-MMP act inh, whose call it bears; RFP signal change, %; measured here: RFP expression control read;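 0 = vehicle wells; hits needed this value within 50% of zero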
* = called active by the depositor; i = inactive; ? = inconclusive; . = no result given; + = active, no number.

SMILES	eIF4H inh	PABP FP inh	CSC inhib	Yeast UUG start	Rce1 inhib	Env fusion inh	MT1-MMP act inh	MT1-MMP act inh RFP	others
CCCCc1ccc(NC(=S)N2CCN(C(=O)c3ccco3)CC2)cc1	2	5	-7	-15	i	13	0	-1
Cc1ccc(C(=O)Nc2ccc(N3CCOCC3)nc2N2CCOCC2)cc1	3	-5	-7	1	.	9	-1	1
Cc1cccc(C)c1-n1cccc1/C=C1\SC(=S)N(c2cccc(C(=O)O)c2)C1=O	18	-1	31	.	i	16	1	0
CCOC(=O)c1c(-c2ccccc2)csc1NC(=O)c1ccc(S(=O)(=O)N2CC(C)OC(C)C2)cc1 (stereo unspecified)	-5	7	0	-11	i	.	4	-2
CCOc1c(Cl)cc(CNc2nnnn2C)cc1OC	-2	2	-15	-14	i	0	4	0
CC1(C)CC(=O)C(C(c2ccccc2F)C2C(=O)CC(C)(C)CC2=O)C(=O)C1	-11	-8	-3	-9	i	.	0	-3
COc1ccc(NC(=O)CN(C)CC(=O)c2c(C)[nH]c3ccccc23)cc1	.	.	39	-4	.	.	-3	2
CN(C(=O)COC(=O)c1ccccc1C(=O)N(C)c1ccccc1)c1ccccc1	-13	1	7	-12	i	.	-11	-2
O=[N+]([O-])C(/C=C(\Cl)[N+](=O)[O-])=C(N1CCCCC1)N1CCCCC1	?	-14	4	.	.	1	11	4
CC(C)(C)C(=O)Nc1ccc(C(=O)COC(=O)C2CC2)cc1	.	.	.	-32	.	-26	-1	-1
COc1ccc(NC(=O)CNS(=O)(=O)c2cccs2)c(OC)c1	1	-2	-7	-7	i	.	4	-3
CCc1cc2c(=O)n(Cc3ccccc3)c(SC3CCOC3=O)nc2s1 (stereo unspecified)	10	5	-5	-3	i	7	-1	2
Cc1ccc(SCC(=O)NCc2ccc(F)cc2)cc1	-10	-8	-9	-11	i	-5	3	4
CN(C)S(=O)(=O)c1cccc(NC(=O)CSc2nncn2-c2ccccc2)c1	-6	-12	-4	.	i	10	1	-10
COC(=O)c1cn(CC(=O)NC2CCCCC2)c2ccccc12	-9	-3	-6	.	i	-6	1	-3
CCN(CC)S(=O)(=O)c1cccc(NC(=O)COC(=O)/C=C/c2cccs2)c1	-5	0	11	.	i	14	1	0
CC1CCCC(C)N1C(=O)COC(=O)CCC1CCCC1 (stereo unspecified)	-1	8	2	0	i	14	-2	2
CCCc1nc(SC)[nH]c(=O)c1C	0	-2	-3	.	i	-13	1	5
CCS(=O)(=O)c1nc(S(=O)(=O)c2ccc(Cl)cc2)c(N2CCC3(CC2)OCCO3)s1	-24	0	-9	1	i	-5	-3	-5
COc1ccc(C(=O)NC(C)c2nnc(SCC(=O)NC3=NCCS3)n2C)cc1 (stereo unspecified)	75	0	7	.	i	-6	-2	1	eIF4H inh retest=-10;PABP FP inh retest=14
CCn1c(C)c(C)c2cc(C(=O)NCCCN3CCN(C)CC3)ccc21	6	-3	-17	4	i	13	5	7
COc1ccc(S(=O)(=O)Nc2ccccn2)cc1	1	-7	-5	-5	i	-4	3	1
O=C(NCCC1CCCCN1S(=O)(=O)c1cccs1)C(=O)Nc1ccc(F)cc1 (stereo unspecified)	.	.	31	5	i	-132	0	-6
Cc1ccc(NC(=O)c2sc3nc(N4CCOCC4)c4c(c3c2N)CC(C)(C)OC4)cc1	-6	6	11	9	i	-2	0	-2
Cc1ccccc1NC(=O)CN1C(=O)N/C(=C\c2ccc(N3CCOCC3)c(F)c2)C1=O	-9	-3	-5	.	i	12	3	-2
CCNC(=O)CN(c1ccc(OC)c(OC)c1)S(=O)(=O)c1ccccc1	-6	7	-14	-10	i	6	4	10
CCOC(=O)COc1ccc(Oc2nc(C)cc(OC)n2)nn1	3	-6	10	-6	i	-8	1	4
COc1ccc(NC(=O)Cc2nnc(SCC(=O)NC3=NCCS3)n2C)cc1	-16	1	-7	-14	i	10	9	0
Cc1ccc(C)c(S(=O)(=O)N2CCN(C(=O)c3ccc(C)s3)CC2)c1	-10	1	-8	-4	i	-6	0	-4
CC(=O)C1C(c2ccncc2)NC(=O)NC1(O)C(F)(F)F (stereo unspecified)	2	-5	-3	-10	i	.	-2	0
CN(CC(=O)NCCc1ccc(F)cc1)CC(=O)Nc1ccc(F)c(F)c1F	.	.	.	-9	.	4	2	1
CCN(CC)S(=O)(=O)c1ccc(NS(=O)(=O)c2ccc3oc(=O)[nH]c3c2)cc1	7	11	-2	-19	i	-14	5	7
Cc1occc1-c1nnc(SCC(=O)Nc2nccs2)n1CCc1ccccc1	-1	2	.	.	i	.	.	.
COc1cc([C@@H]2CC=C(C(=O)O)[C@H](c3ccc(C)cc3)N2S(=O)(=O)c2ccc(C)cc2)cc(OC)c1OC	.	.	.	19	.	?	3	1
COc1ccc(/C=C(/NC(=O)c2ccccc2OC)C(=O)Nc2ccc(C(=O)O)cc2)cc1	6	7	1	-19	i	14	-2	0
COc1ccc(C(=O)C(C)OC(=O)CNC(=O)C2CCCCC2)cc1 (stereo unspecified)	.	.	-13	-8	.	.	-3	1
COc1cccc(CN(C)C(=O)c2cc(-c3ccc(F)cc3)nc3ccccc23)c1	1	9	18	-17	i	.	5	-1
CCCCNC(=O)c1c(N)n(/N=C/c2ccccn2)c2nc3ccccc3nc12	-6	-3	4	.	i	.	.	.
CON(C)c1nc(Oc2ccc(=O)[nH]n2)nc(N(C)C)n1	-3	0	-17	-19	i	-18	5	-6
COc1cc2ccccc2cc1C(=O)Nc1ccc(NC(=O)c2cccs2)cc1	0	-2	.	-9	i	21	5	-2
Cc1ccc(NC(=O)CCC(C(=O)O)N2C(=O)c3ccccc3C2=O)cc1 (stereo unspecified)	-3	16	.	-15	i	.	4	1
Cc1ccccc1N1C(=O)CC2(CCCC2)CC1=O	-5	-9	-17	-3	i	-3	2	2
CCn1cc(CNC(=O)c2ccc3nc(Cc4ccc(OC)cc4)oc3c2)cn1	-14	-8	-2	-12	i	0	-4	-19
Cc1cc(=O)oc2cc(OCC(=O)OCC(=O)Nc3ccccc3C(C)C)ccc12	-2	10	-1	-5	i	.	12	15
COc1ccc(NC(=O)C[C@H]2C(=O)N(C3CCCCC3)C[C@@H]2c2ccc(OC)cc2)cc1	.	.	.	-7	.	-13	2	-1
COc1cccc(Oc2cncnc2-c2ccc(OC)cc2O)c1	-9	2	.	-15	i	-76	-6	0
CCN(CC)S(=O)(=O)c1ccc(=O)n(CC(=O)N2Cc3ccccc3CC2C(N)=O)c1 (stereo unspecified)	.	.	.	-4	.	-14	3	3
Cc1ccccc1-n1c(SCc2ccccn2)nc2n[nH]c(C)c2c1=N	1	8	6	.	i	.	-5	-18
Nc1cccnc1Sc1ccc([N+](=O)[O-])cn1	0	1	.	-20	i	20	1	-4
COc1cc(CN2CCCCC2)ccc1OCc1ccccc1	9	13	58	-16	i	-5	0	-4

Reprinted from the entries so far (three entries):
SMILES	eIF4H inh	PABP FP inh	CSC inhib	Yeast UUG start	Rce1 inhib	Env fusion inh	MT1-MMP act inh	MT1-MMP act inh RFP	others
Cc1ccc(NC(=O)CCC(C(=O)O)N2C(=O)c3ccccc3C2=O)cc1 (stereo unspecified)	-3	16	.	-15	i	.	4	1
Cc1ccccc1N1C(=O)CC2(CCCC2)CC1=O	-5	-9	-17	-3	i	-3	2	2
CCn1cc(CNC(=O)c2ccc3nc(Cc4ccc(OC)cc4)oc3c2)cn1	-14	-8	-2	-12	i	0	-4	-19

More structures follow.
SMILES	eIF4H inh	PABP FP inh	CSC inhib	Yeast UUG start	Rce1 inhib	Env fusion inh	MT1-MMP act inh	MT1-MMP act inh RFP	others
Cc1csc2nc(NC(=O)c3ccccc3)sc(=O)c12	27	-8	4	-18	i	-21	-2	2
NC(=O)c1nsc(C(=O)N(c2ccccc2)C(C(=O)NC2CCCC2)c2ccc3ncccc3c2)c1N (stereo unspecified)	-10	1	5	0	i	6	-5	-2
O=C(NC1CCCCC1)C(c1ccc(F)cc1)N(Cc1ccco1)C(=O)Cn1nnc2ccccc21 (stereo unspecified)	6	-11	-12	-11	i	10	5	6
Cc1c(NC(=O)C(C)OC(=O)COc2ccccc2)c(=O)n(-c2ccccc2)n1C (stereo unspecified)	-8	7	.	.	i	-2	-1	0
OCCCNc1ncnc2sc(-c3ccccc3)cc12	-14	0	.	.	+	-15	2	-4
O=C(Nc1ccccc1)OCC1COC(c2ccccc2)(c2ccccc2)O1 (stereo unspecified)	.	.	.	-23	.	7	-2	-2
COC(=O)c1ccc(NC(=O)CCS(=O)(=O)c2ccc3c(c2)NC(=O)C(C)S3)cc1 (stereo unspecified)	4	9	-2	-13	i	-27	0	-1
COC(=O)c1ccc(COc2c(F)c(F)cc(F)c2F)o1	9	4	.	-8	i	4	3	0
CCC1S/C(=N/C(=O)NC2CCCCC2)NC1=O (stereo unspecified)	-11	-10	3	-15	.	-34	3	2
CCCCCC(=O)N1C[C@@H](n2cc(COC(=O)c3ccccc3)nn2)[C@H](O)C[C@@H]1c1ccc(Cl)cc1	.	.	.	1	.	-46	-3	0
O=Cc1cc2ccccc2nc1SCCCF	1	-9	14	.	i	5	2	4
Cc1cc2cc(C)c(SCC(=O)NCc3ccco3)nc2cc1C	4	-4	7	.	i	-13	0	-1
COC(=O)c1ccccc1OCC(=O)NC1CCCCC1	8	0	-6	-11	i	3	-9	-5
Cc1ccc(S(=O)(=O)c2cc3c(=O)n4ccccc4nc3n(CC3CCCO3)c2=N)cc1C (stereo unspecified)	?	3	3	-5	i	22	.	.
CCCNC(=O)COc1ccc2c(=O)c(Oc3ccccc3F)coc2c1	-1	-10	1	.	i	24	-2	-1
Cc1cccc(NC(=O)CCNC(=O)c2ccc(Br)cc2)c1	7	-8	.	-11	i	-74	-1	-1
CCC(CC)C(=O)Nc1cccc(C(=O)N2CCCCCC2)c1	1	1	.	6	i	.	0	-2
CSCCC(NC(=O)C1CCC(C)CC1)C(=O)N1CCN(c2ccccn2)CC1 (stereo unspecified)	0	1	-13	-5	i	-39	1	2
O=C(O)C1C2CCC(O2)C1C(=O)NCc1ccc(Cl)cc1 (stereo unspecified)	10	-9	.	.	i	-15	5	8
CCOC(=O)Cn1c(=O)c(-c2ccccc2NC)nc2ccccc21	2	13	-9	-5	i	.	3	1
COc1ccc(CN2CCCC(C(=O)c3cccc(OC(C)C)c3)C2)cc1Cn1cccn1 (stereo unspecified)	13	-2	13	-7	i	-2	-3	-5
COC(=O)C(C(=O)Nc1cccc(C)n1)C1CCCCCC1 (stereo unspecified)	2	7	24	-10	i	.	-10	-8
CSCC[C@H](NC(=O)c1cccc([N+](=O)[O-])c1C)c1nc2ccccc2[nH]1	6	18	7	.	i	-25	-3	-2
COc1cc(C(=O)Nc2cccc(-c3cn4cccnc4n3)c2)cc(OC)c1OC	-4	0	-10	5	i	2	14	0
CN1C(=O)/C(=C2\SC(=S)N(CCCCCC(=O)O)C2=O)c2ccccc21	79	16	1	-11	i	-5	-3	0	eIF4H inh retest=-14;PABP FP inh retest=17
O=C(c1cccc(Cl)c1)N1CCC(C(=O)N2CCN(Cc3ccccc3)CC2)CC1	-3	-6	-4	-7	i	15	5	-6
CCCCCCC(=O)Nc1nc(C)c(-c2csc(Nc3cccc(OC)c3)n2)s1	-7	-1	37	-10	i	16	5	-4
Cc1ccc(NC(=O)c2cnn(-c3ccccc3)c2C)cc1	-13	-14	-5	-29	i	-87	5	-3
COc1ccccc1CNC(=O)c1cnc2ccccn2c1=O	-10	-4	-16	-10	i	11	3	5

From PubChem
